Screening data (PubChem)
VDR inhibitor: blocks the human vitamin D receptor; P11473; VDR-SRC2-3 peptide fluorescence polarization, 2 h; Potency, µM, for the others: max response, negative = inhibition, most hits filed as inhibitors; 0.93% of 400,000 active; AID 504847; active = well fitted inhibition curve with a large enough effect; inconclusive = small, poorly fitted or top-dose-only effect, or another doubt; inactive = no such curve, though single readings can be large or run the other way; note: series mostly up to about 120 µM
Target sequence (P11473 whole entry, looked up): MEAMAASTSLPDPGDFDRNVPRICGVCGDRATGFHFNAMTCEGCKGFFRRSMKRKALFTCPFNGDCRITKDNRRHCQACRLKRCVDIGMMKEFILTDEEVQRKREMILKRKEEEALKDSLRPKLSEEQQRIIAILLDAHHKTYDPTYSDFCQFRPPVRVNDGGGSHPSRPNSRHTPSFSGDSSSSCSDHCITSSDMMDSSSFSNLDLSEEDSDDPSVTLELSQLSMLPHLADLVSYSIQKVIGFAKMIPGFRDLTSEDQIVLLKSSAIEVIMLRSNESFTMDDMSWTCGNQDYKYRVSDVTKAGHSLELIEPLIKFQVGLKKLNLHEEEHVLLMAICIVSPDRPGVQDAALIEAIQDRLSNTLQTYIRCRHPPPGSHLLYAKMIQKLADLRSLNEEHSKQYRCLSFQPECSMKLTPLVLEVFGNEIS
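VDR–SRC2-3 interaction, FP format. Cmpds 23 nl via pintool, brief spin, 2 h ambient incubation.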
An asterisk follows results filed as active; ? = inconclusive. % is set by controls: 0 for no effect and ±100 for the full control effect; potency is the fitted concentration of half-maximal effect. A portion of the library; count on the stated rates, not on these rows.

| compound | VDR inhibitor |
| --- | --- |
| Cc1nn(Cc2ccccc2Cl)c2sc(C(=O)NC(C)(C)C)cc12 | 16% |
| COC(=O)c1cc(NC(=O)Cn2nc(-c3ccc(C)c(C)c3)ccc2=O)cc(C(=O)OC)c1 | 11% |
| CC(C(=O)N1CCN(c2ccccc2)CC1)N1C(=O)C2CC=CCC2C1=O (centres undefined) | -3% |
| CCOC(=O)C(=O)N1CCC(C(=O)OC)CC1 | -13% |
| Cc1ccc(F)cc1NC(=O)COC(=O)c1ccc(S(C)(=O)=O)c([N+](=O)[O-])c1 | -25% |
| Cc1cc(=O)oc2cc(OCC(=O)NC3CC(C)(C)NC(C)(C)C3)c(Cl)cc12 | -13% |
| CCCCC1=CC2=CC(=O)C(C)(OC(=O)CC)C(=O)C2=CN1C(CO)CO (centres undefined) | -3% |
| CCOC(=O)c1cc2c(=O)n3ccccc3nc2n(C(C)C)c1=NC(=O)c1cc2ccccc2o1 | -3% |
| COc1ccc(C(CC(=O)Nc2ccc(Br)cn2)N2Cc3ccccc3C2=O)cc1 (centres undefined) | 14% |
| COC(=O)c1c(SCC(=O)Nc2cc(F)ccc2F)[nH]c2ccc(C)cc2c1=O | 7% |
| CC(=O)c1c(C(C)=O)c(C)n(Cc2ccc3c(c2)OCO3)c1C | -1% |
| NC(=O)c1ccccc1NC(=O)CCCCCn1nnc2ccccc2c1=O | 12% |
| CCCOc1ccccc1C(=O)N(Cc1ccc(C)o1)C1CCS(=O)(=O)C1 (centres undefined) | -17% |
| Cc1ccc(N(Cc2ccccc2)C(=O)CN2C(=O)NC3(CCCC3)C2=O)cc1 | -18% |
| CC(C)C(=O)Nc1ccc(C(=O)NNC(=O)CCCOc2ccc(Cl)cc2Cl)cc1 | -3% |
| COc1ccccc1NC(=O)N1CCN(c2ccc3nncn3n2)CC1 | -26% |
| COC(=O)[C@]1(Cc2ccccc2)N[C@H](CN(C)S(=O)(=O)c2ccc(C(C)(C)C)cc2)[C@@H]2C(=O)N(C)C(=O)[C@@H]21 | -19% |
| CN(C)c1cccc(N(C)C)c1CNC(=O)C(C)(C)C | -3% |
| CCC1CCCCN1C(=O)COc1ccc(N(C)S(=O)(=O)c2ccc(C)cc2)cc1 (centres undefined) | 5% |
| COc1ccc2cc(CCNC(=O)C(C)(C)C)c(=O)[nH]c2c1 | -17% |
| COCCCNC(=S)N(Cc1ccccc1)Cc1ccc(F)cc1 | -2% |
| CCCCOC(=O)Nc1nnc(CC)s1 | 0% |
| CCOc1ccc(-c2nc3c(s2)CCc2onc(-c4ccc(OC)cc4)c2-3)cc1 | 13% |
| NC(=O)c1ccc(NC(=O)CSc2cn(CC(=O)N3CCOCC3)c3ccccc23)cc1 | -12% |
| CCCCc1ccc(NC(=S)N2CCCC2)cc1 | 1% |
| Cc1ccc2oc(=O)c(/C=C(\O)c3ccco3)nc2c1 | 4% |
| COc1ccc(S(=O)(=O)NCC(c2ccco2)N2CCc3ccccc3C2)cc1 (centres undefined) | 5% |
| N#Cc1ccccc1OCC(=O)OCC(=O)N1CCCC1 | 1% |
| O=C(COC(=O)/C=C/c1ccc(S(=O)(=O)N2CCCCCC2)cc1)NCc1ccccc1Cl | -11% |
| Cc1cccc(C)c1OCc1cc(C(=O)N(Cc2nccn2C)C(C)C)no1 | -6% |

Some of these compounds in order of their number in VDR inhibitor, highest first.
| compound | VDR inhibitor |
| --- | --- |
| Cc1nn(Cc2ccccc2Cl)c2sc(C(=O)NC(C)(C)C)cc12 | 16% |
| COc1ccc(S(=O)(=O)NCC(c2ccco2)N2CCc3ccccc3C2)cc1 (centres undefined) | 5% |
| CC(=O)c1c(C(C)=O)c(C)n(Cc2ccc3c(c2)OCO3)c1C | -1% |
| Cc1cccc(C)c1OCc1cc(C(=O)N(Cc2nccn2C)C(C)C)no1 | -6% |
| CCCOc1ccccc1C(=O)N(Cc1ccc(C)o1)C1CCS(=O)(=O)C1 (centres undefined) | -17% |
| COC(=O)[C@]1(Cc2ccccc2)N[C@H](CN(C)S(=O)(=O)c2ccc(C(C)(C)C)cc2)[C@@H]2C(=O)N(C)C(=O)[C@@H]21 | -19% |

Remaining list, next part.
| compound | VDR inhibitor |
| --- | --- |
| COc1ccc(NC(C)=O)cc1S(=O)(=O)N1CCN(C/C=C/c2ccccc2)CC1 | -12% |
| CC(C)=C1SC(N2CCN(c3cccc(C)c3)CC2)=NC1=O | -1% |
| CN(c1ccccc1)S(=O)(=O)c1cc(C(=O)OCC(N)=O)ccc1Cl | -8% |
| OC1(c2cccs2)CN(c2ccc(Cl)cc2)C2=[N+]1CCCS2 (centres undefined) | 0% |
| O=C(Cn1ccc(NC(=O)OCc2ccccc2)nc1=O)NCCN1CCOCC1 | 9% |
| CCN1C(=O)NC2C1N(S(C)(=O)=O)CCN2S(C)(=O)=O (centres undefined) | 9% |
| O=C(Nc1ccccc1)Nc1ccc(Cl)c([N+](=O)[O-])c1 | -13% |
| CC(=O)OC1CC2C(C)(C)C(=O)CC[C@]2(C)C2CC[C@@]3(C)C(c4ccoc4)OC(=O)C4OC43[C@]12C (some centres undefined) | ? |
| CO/C(N)=C(\C#N)N=Cc1ccccc1Cl | 12% |
| Cc1ccc(Cl)cc1N(C)C(=O)c1noc2c1CCCCC2 | 2% |
| C/C(=N\NC(=O)Cc1c(C)[nH][nH]c1=O)c1cccc(Br)c1 | -12% |
| CCOc1cc2[nH]c(=S)n(Cc3ccc(C(=O)NCCOC)cc3)c(=O)c2cc1OCC | 11% |
| CN(C(=O)COC(=O)/C=C/c1ccc(S(=O)(=O)N2CCc3ccccc32)cc1)C1CCS(=O)(=O)C1 (centres undefined) | 8% |
| Cc1ccc(CNC(=O)C2CC=CCC2C(=O)O)cc1 (centres undefined) | -17% |
| Cc1ccc(Cl)cc1N1CCN(C(c2ccc(C#N)cc2)c2nnnn2C2CCCC2)CC1 (centres undefined) | -2% |
| CC(Sc1nnnn1C1CC1)C(=O)Nc1cccc(S(=O)(=O)N2CCOCC2)c1 (centres undefined) | 15% |
| COc1cc2c(C(=O)NCc3ccc4c(c3)OCO4)cn(C)c(=O)c2cc1OC | 0% |
| COc1ccc(/C=N/Nc2nncn2N)cc1Br | 22µM* |
| O=C(OCC(=O)N(C1CCCCC1)C1CCCCC1)c1cnccn1 | -1% |
| Cc1ccc(OCCNC(=O)CNC(=O)Cc2cccc3ccccc23)cc1 | -29% |
| COc1ccccc1NC(=O)CSc1ncnc2c1oc1ccccc12 | -1% |
| Nc1nc(NCCCN2CCOCC2)nc(Nc2ccc(Cl)cc2)c1[N+](=O)[O-] | -6% |
| CCOc1ccc(S(=O)(=O)NCc2ccc(F)cc2)c2cccnc12 | -6% |
| CCOC(=O)c1c(S(=O)(=O)N2CCN(c3ccccc3OC)CC2)c(C)n(C)c1C | 4% |
| CCOc1ccc(C(=O)NC(C(=O)NCc2ccccn2)C(C)C)cc1 (centres undefined) | -3% |
| CC(C)(C)c1cc[n+](-c2nc([O-])sc2C=O)cc1 | -15% |
| COCCN(C(=S)Nc1ccc(C)cc1C)C(C)c1cccs1 (centres undefined) | -15% |
| COC(=O)c1ccc(N=NNc2ccc(C(=O)OC)cc2)cc1 | -10% |
| CCc1ccc(NC(=O)N2CCOc3ccc(Cl)cc32)cc1 | 8% |
| COc1cc(NS(=O)(=O)c2ccc(NC(=O)COc3ccccc3Cl)cc2)nc(OC)n1 | -7% |
| CNCCCOc1ccc2c(c1)CCC2 | -4% |
| CCOC(=O)c1cc(-c2ccccc2)n(CCCC(=O)Nc2cccc(C)c2C)c1C | 25% |
| CC12COC3(C(N)=O)CC1CCC32C (centres undefined) | 0% |
| Nc1nnc(N2CCc3ccccc32)s1 | -10% |
| Cc1cc(NC(=O)c2cncc(Br)c2)n(-c2ccccn2)n1 | -5% |
| C=CCn1c(CCc2cc(C(C)(C)C)c(O)c(C(C)(C)C)c2)n[nH]c1=S | -6% |
| COc1ccccc1-c1oc2ccccc2c1-c1ccccc1OC | -1% |
| Nc1cccnc1Oc1ccc(F)cc1 | -3% |
| O=c1c2ccccc2ncn1-c1ccc([N+](=O)[O-])cc1[N+](=O)[O-] | -11% |
| COc1cc(/C=C2/SC(N)=NC2=O)ccc1Oc1ccc([N+](=O)[O-])cc1[N+](=O)[O-] | -23% |
| Cc1cc(NC(=O)COc2c(C)cccc2C)no1 | -16% |
| Cc1cccn2c(=O)c3cc(C(=O)NC4CCS(=O)(=O)C4)sc3nc12 (centres undefined) | -22% |
| COc1cccc(NC(=O)C2CCCN(S(=O)(=O)c3cn(C(C)C)cn3)C2)c1 (centres undefined) | 6% |
| CCOc1ccc(-c2noc(CCCC(=O)NCC3CCCO3)n2)cc1OC (centres undefined) | -12% |
| CCC(=O)N1c2ccccc2CC1C(=O)NCc1cccc(C)c1 (centres undefined) | -9% |
| Cc1ccc(S(=O)(=O)N2CCCC(C(=O)NCC(C)C)C2)cc1 (centres undefined) | ? |
| S=c1[nH]nc(C2CCCCC2)n1/N=C/c1cccc(Cl)c1Cl | 8% |
| CN(C)S(=O)(=O)c1ccc(Cl)c(NC(=O)CN2CCc3ccccc3C2)c1 | 13% |
| CC(=O)c1ccc(NC(=O)CSc2nnc(NC(=O)C3CC3)s2)cc1 | -7% |
| Cc1cc(C)c(S(=O)(=O)N(C)CC(=O)N2CCCCC2)c(C)c1 | 5% |
| Cc1cc(C(=O)OCC(=O)Nc2cc(C(F)(F)F)ccc2N2CCOCC2)c(C)o1 | 4% |
| Cc1ccc(C(=O)N/C(=C\c2ccc(-c3cccc([N+](=O)[O-])c3)o2)C(=O)NCCCN(C)C)cc1 | 22% |
| CCn1cc(C(=O)NCc2ccc(C)cc2)c(=O)c2cc(S(=O)(=O)N3CCc4ccccc4C3)ccc21 | -10% |
| O=C(N/C(=C/c1cccc([N+](=O)[O-])c1)C(=O)N1CCCCC1)c1cccs1 | -5% |
| COCCn1c(N)c(N(Cc2ccccc2)C(=O)C2=COCCO2)c(=O)[nH]c1=O | -24% |
| Nc1nc2c(s1)COc1ccccc1-2 | ? |
| CC(C)CN1CCN(Cc2cccc3cccnc23)CC1CCO (centres undefined) | 8% |
| COc1cc(/C=C2\SC(=S)N(Nc3ncc(C(F)(F)F)cc3Cl)C2=O)cc(OC)c1OC | ? |
| CC1Cc2nc(SCC(=O)N3CCc4ccccc43)n(C)c(=O)c2S1 (centres undefined) | ? |
| COc1ccc(/C=C/C(=O)Nc2nc(C)c(C(=O)N(C)C)s2)cc1OC | -25% |

(next part)
| compound | VDR inhibitor |
| --- | --- |
| Cc1ccc(C(=O)c2cc3ccccc3o2)cc1C | 2% |
| Cc1nc2c(-c3ccc(F)cc3)c(C)[nH]n2c(=O)c1Cl | 17% |
| Cc1cc(C)cc(NC(=O)CSc2nc(=O)n(CCN3CCOCC3)c3c2CCCC3)c1 | 14% |
| FC(F)(F)c1ccc(-n2ccnc2)nc1 | -10% |
| COc1ccccc1C(=O)NC(=O)COC(=O)CCNS(=O)(=O)c1ccccc1 | 2% |
| COc1ccccc1N(C)C(=O)c1cc(S(=O)(=O)N2CCc3ccccc32)cn1C | -4% |
| O=C(CC(=O)N/N=C/c1ccc(C(=O)O)cc1)NCCc1ccccc1 | -15% |
| O=C(Nc1ccc(Cl)c(S(=O)(=O)N2CCCCC2)c1)c1cnccn1 | -21% |
| O=C(c1cc(-c2ccco2)nc2ccccc12)N1CCN(c2ccc(F)cc2)CC1 | 7% |
| CCc1cccc(C)c1Nc1c(-c2ccc(N(C)C)cc2)nc2cnccn12 | -7% |
| Cc1[nH]n(-c2c(Cl)cc(Cl)cc2Cl)c(=O)c1C=Nc1ccc(S(=O)(=O)N2CCOCC2)cc1 | 10% |
| Cc1cc(=O)c2cc(Br)ccc2[nH]1 | 5% |
| O=C(NN=Cc1ccccc1)C(Oc1ccccc1)c1ccccc1 (centres undefined) | 21% |
| CC1CCN(S(=O)(=O)c2ccc(C(=O)Nc3nnc(-c4ccco4)o3)cc2)CC1 | 9% |
| CCOC(=O)Cc1csc(NC(=O)CSc2nnc(-c3cccnc3)n2Cc2ccco2)n1 | -11% |
| CCC(C)C(NC(=O)C1CCC(C)CC1)C(=O)NC(C(=O)OC)C(C)C (centres undefined) | 16% |
| CCCc1cnc2c(c1SCC(=O)Nc1ccccc1F)c(=O)n(C)c(=O)n2C | -4% |
| COc1ccc(CCN=C(N)NS(=O)(=O)c2ccccc2)cc1OC | -16% |
| N=c1c(S(=O)(=O)c2ccc(Cl)cc2)cc2c(=O)n3ccccc3nc2n1C1CCCCC1 | -6% |
| CCCCOC(=O)C1[C@H]2C(=O)N(Cc3cccs3)C[C@]23C=C[C@H]1O3 (some centres undefined) | 4% |
| CCc1c(C)c2c(C)nn(-c3ccccc3)c2oc1=O | -4% |
| CCCOc1ccc(C(=O)CCC(=O)NNC(=O)c2ccncc2)cc1 | -5% |
| O=C(CCS(=O)(=O)Cc1ccccc1F)NCc1ccccc1Cl | -6% |
| Cn1c(NCCCO)nc2c1c(=O)n(Cc1ccccc1F)c(=O)n2C | -8% |
| Cc1cc2cc(CN(CC3CCCO3)C(=S)Nc3ccccc3)c(=O)[nH]c2cc1C (centres undefined) | 10% |
| Cc1cccc(N(Cc2ccc(Cl)cc2)S(C)(=O)=O)c1 | 17% |
| COc1ccc(CSc2nc3ccccc3[nH]2)cc1 | -11% |
| Cc1ccc(-c2nc(C)c(CCNC(=O)c3ccccc3Br)s2)cc1 | 9% |
| COc1ccc(-c2cc(C(C)=O)c(C)n2CCC(=O)NCc2ccccc2OC)cc1 | -11% |

Quoted at random: 6 compounds from above, in no set order.
| compound | VDR inhibitor |
| --- | --- |
| COC(=O)c1cc(NC(=O)Cn2nc(-c3ccc(C)c(C)c3)ccc2=O)cc(C(=O)OC)c1 | 11% |
| OC1(c2cccs2)CN(c2ccc(Cl)cc2)C2=[N+]1CCCS2 (centres undefined) | 0% |
| O=C(COC(=O)/C=C/c1ccc(S(=O)(=O)N2CCCCCC2)cc1)NCc1ccccc1Cl | -11% |
| Cc1cc(=O)c2cc(Br)ccc2[nH]1 | 5% |
| Cc1cccc(C)c1OCc1cc(C(=O)N(Cc2nccn2C)C(C)C)no1 | -6% |
| CCOC(=O)Cc1csc(NC(=O)CSc2nnc(-c3cccnc3)n2Cc2ccco2)n1 | -11% |
